Screening results as filed in PubChem.
MgrA DNA FP – S. aureus MgrA-DNA binding modulation; fluorescence polarization; inhibition, %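 (about 10 µg/mL by stock and volumes)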; hit rate 0.13% among 84,000;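 active = above 50% in either of two replicates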;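 note: 0% = protein plus DNA without compound and 100% = DNA alone without protein; higher means less MgrA bound to DNA so lower polarization; one replicate is shown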
Sa helicase inh – S. aureus DNA helicase inhibition; purified S. aureus helicase, fluorescence unwinding assay; about half of the hits fall short of the stated cut; inhibition, %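 (tested at about 80 µM)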; hit rate 0.05% among 120,000;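 active = both duplicates at 50% or more, or one of them with a favoured structure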;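 note: 0% = mean of negative control wells and 100% = mean of positive control wells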
An asterisk follows results filed as active; / = no result given; & = joins results of further samples.

SMILES	MgrA DNA FP	Sa helicase inh
Cc1ccc(C)c(NC(=O)CSc2ncccn2)c1	0.9	5.0
COc1ccc(C(C)(C)C)cc1S(=O)(=O)N1CCN(c2ccccc2)CC1	1.3	8.0
CCN1CCN(C(=O)/C=C/c2cn(-c3ccccc3)nc2-c2cccnc2)CC1	/	-11.0
O=C(O)CCOc1cccc(Br)c1	-1.8	2.0
CC(C)n1cnnc1SCC(=O)NC(=O)c1cccn1C	/	-10.0
COc1ccccc1OCC(=O)Nc1nc(-c2ccc(S(=O)(=O)N3CCCC3)cc2)cs1	/	15.0
O=C(COc1ccc2ccccc2c1)NC1CCC(O)CC1 (centres undefined)	/	-7.0
O=C(COC(=O)c1cccnc1Cl)Nc1cccc(Br)c1	-1.4	5.0
Cc1ccc(C(=O)OCC(=O)N2C(C)CCCC2C)s1 (centres undefined)	/	-9.0
Cc1ccc2nc(-c3cccc(NC(=O)COc4ccccc4)c3C)oc2c1	1.2	4.0
Cn1c(=O)c2c(ncn2C)n(C)c1=O	0.5	/
O=C(O)CCc1nc(-c2ccccc2)c(-c2ccccc2)o1	0.7&3.5	/

Seven entries picked at random from the list so far, as already listed:
SMILES	MgrA DNA FP	Sa helicase inh
O=C(COc1ccc2ccccc2c1)NC1CCC(O)CC1 (centres undefined)	/	-7.0
Cc1ccc(C)c(NC(=O)CSc2ncccn2)c1	0.9	5.0
CC(C)n1cnnc1SCC(=O)NC(=O)c1cccn1C	/	-10.0
O=C(O)CCOc1cccc(Br)c1	-1.8	2.0
COc1ccccc1OCC(=O)Nc1nc(-c2ccc(S(=O)(=O)N3CCCC3)cc2)cs1	/	15.0
Cc1ccc2nc(-c3cccc(NC(=O)COc4ccccc4)c3C)oc2c1	1.2	4.0
O=C(O)CCc1nc(-c2ccccc2)c(-c2ccccc2)o1	0.7&3.5	/

Further compounds
SMILES	MgrA DNA FP	Sa helicase inh
CC(c1ccccc1)n1c(Cn2ncc3ccccc3c2=O)n[nH]c1=S (centres undefined)	-2.2	6.0
CCCCNC(=S)NN1C(=O)NC(C)(c2cccc(OC)c2)C1=O (centres undefined)	/	2.0
Nc1nn(-c2ccccc2Cl)cc1-c1nn[nH]n1	-1.0	/
COc1ccc(N2CCN(CCNC(=O)c3nnc(Cc4ccccc4Cl)o3)CC2)cc1	-0.9	7.0
CCCC(O)C(C)(C)CO (centres undefined)	/	-19.0
CN1C(=O)/C(=C\c2ccc(C(=O)N3CCOCC3)cc2)SC1=S	/	3.0
N=c1n(CCO)c2ccccc2n1CCN1CCCCC1	/	6.0
CSc1c(-c2cccs2)c(N)nn1S(=O)(=O)c1ccccc1	-1.4	/
CNc1ccccc1C(=O)OCc1ccc(C(=O)OC)cc1	3.0	-5.0
CCOc1ccc(/C=C2\SC(=O)N(CCNC(=O)c3c(CC)noc3C)C2=O)cc1OC	/	2.0
O/N=C1\CCCc2nn(-c3ccc(Cl)c(Cl)c3)nc21	/	-23.0
C=CCn1c(C(C)NC(C)=O)nc2ccccc21 (centres undefined)	/	-5.0
O=c1/c(=C/c2ccco2)sc2nc3ccccc3n12	-0.2	-16.0
CCC(Sc1ncc(S(=O)(=O)c2ccc(C)c(C)c2)c(=O)[nH]1)C(=O)Nc1ccc(OC)cc1 (centres undefined)	3.3	-11.0
COc1ccc(CSc2nnc(CSc3cccs3)n2C)cc1	-0.3	/
COc1ccc(S(N)(=O)=O)cc1C(=O)N1CCCC1	/	-7.0
CCN(CC)C(=O)c1cccc(Cl)c1	-0.8	6.0
O=C(Nc1ccccc1)c1ccc2c3c(onc13)-c1ccccc1C2=O	/	-18.0
CSCCC(C(=O)O)N1C(=O)c2ccccc2C1=O (centres undefined)	/	-11.0
Cc1ccc(-c2nn(-c3ccccc3)cc2C(=O)Nc2ccccc2C)o1	/	13.0
Cc1nn(-c2ccccc2)c(C)c1/C=N/N=C1\C(=O)Nc2ccccc21	/	2.0
COc1cccc(CSc2nnc(Cc3cccs3)n2C2CCCCC2)c1	/	0.0
CC(C)(C)c1csc(=S)n1CCc1ccccn1	-8.0	/
O=C1CC(c2ccccc2)Cc2c1cnn2-c1nc2ccccc2[nH]1 (centres undefined)	-2.8	1.0
FC(F)(F)c1cc(C(F)(F)F)c2ccc(Cl)nc2n1	-0.9	/
CN1C(=O)Cc2cc(S(=O)(=O)CCC(=O)N3CCN(Cc4ccc5c(c4)OCO5)CC3)ccc21	/	14.0
C1CCC2(CC1)C1=C(CCCC1)Nc1nnnn12	1.8	-3.0
COC(=O)c1cccc([N+](=O)[O-])c1C(=O)OC	-2.0	/
S=c1n(CN2CCCC2)nc2sc3ccccc3n12	/	0.0
CC1CCCN(C(=O)CSCC(=O)Nc2nc(-c3cccs3)cs2)C1 (centres undefined)	/	17.0
Cc1cc(C)c2nc(NC(=O)CN3C(=O)CCC3=O)sc2c1	/	-5.0
Cc1ccccc1S(=O)(=O)N1CCOCC1	/	-1.0
O=C(COC(=O)c1ccccc1)Nc1ncc(Cl)cc1Cl	0.9	3.0
CN(Cc1ccccc1)C(=O)COC(=O)c1sc2ccccc2c1Cl	1.5	-13.0
O=C(O)c1cccc(NC(=O)c2nccnc2C(=O)O)c1	-3.4	/
C=CCCOc1ccccc1C(N)=O	/	-10.0
NC(=S)CS(=O)(=O)Cc1ccco1	1.1	/
O=C(Cn1c(=O)oc2ccccc21)N1CCCCC1	-2.4	5.0
COC(=O)c1sccc1N=CC1=C(O)CC(c2cccs2)CC1=O (centres undefined)	-0.4	/
Cc1ccc(C(CNC(=O)COc2ccccc2)N2CCN(C)CC2)cc1 (centres undefined)	/	13.0
Cc1cccc(NC(=O)Cn2c(=O)oc3ccccc32)c1	0.2	12.0
Cc1cccc(OCC(=O)Nc2ccc3nc(N4CCCCC4)cc(C)c3c2)c1	-0.1	3.0
COc1ccc(C(=O)CSc2n[nH]c(=O)n2C2Cc3ccccc3C2)cc1	-0.3	/
O=C(COC(=O)c1ccccc1)NCc1ccco1	3.0	14.0
COc1ccccc1C(=O)NCC(C)(C)CN=C1NS(=O)(=O)c2ccccc21	-1.4	6.0
COc1cc(C(=O)NCc2ccc3c(c2)cc(C)n3C)cc(OC)c1OC	/	17.0
CC(OC(=O)c1ccccc1)C(=O)NCc1ccc2c(c1)OCO2 (centres undefined)	/	-13.0
CCN(CC)S(=O)(=O)c1ccc2nc(NC(=O)c3cc(OC)c(OC)c(OC)c3)sc2c1	/	6.0
CCC(=O)Nc1cc(C(=O)O)ccc1Sc1ccccc1	/	9.0
COc1ccc(-n2c(Cn3ncc4ccccc4c3=O)n[nH]c2=S)cc1	/	-31.0
O=C(NC1CCCCC1)C1c2cccn2CC(=O)N1Cc1ccc2c(c1)OCO2 (centres undefined)	/	12.0
CCOC(=O)N1CCC(NC(=O)c2ccc(CS(=O)(=O)c3ccc(OC)cc3)o2)CC1	2.7	21.0
O=C(c1ccccc1)c1ccc2nc(Cl)c3nncn3c2c1	-5.2	0.0
CCOC(=O)c1cnn(CCOC(=O)c2ccco2)c1NC(=O)c1ccco1	/	10.0
CC(C)(C)C1CCc2c(sc3nc(-c4cccs4)oc(=O)c23)C1 (centres undefined)	0.9	8.0
CC(C)(C)OC(=O)/C(C#N)=C/c1cccs1	/	-22.0
CC(C)(C)c1ccc(NNC(=O)c2ccno2)cc1	/	-20.0
CC(=O)NCc1nc2ccccc2n1C	/	-17.0
Cc1ccc2[nH]c3c(c2c1)CCCC3	9.5	/
CC1CN(CN2C(=O)c3ccccc3C2=O)CC(C)O1 (centres undefined)	-1.0	13.0
Continued:
SMILES	MgrA DNA FP	Sa helicase inh
Cc1cc([N+](=O)[O-])c[nH]c1=O	0.7	/
CCn1c(C)[n+](CC)c2ccc(S(=O)(=O)C(F)(F)F)cc21	/	25.0
Cc1ccc(NCc2nnc(SCC(=O)N3CCOCC3)o2)c(C)c1	-0.8	4.0
O=C(NCCCN1CCCC1=O)c1ccc2c(c1)N(Cc1ccccc1F)C(=O)c1ccccc1S2(=O)=O	/	7.0
CN(C1CCS(=O)(=O)C1)S(C)(=O)=O (centres undefined)	/	-11.0
O=C(NC(=S)NC1CCCCC1NC(=S)NC(=O)c1ccco1)c1ccco1 (centres undefined)	/	-3.0
CCOc1ccc(NC(=O)C2CSC(c3ccncc3)=N2)cc1 (centres undefined)	/	14.0
O=c1c(N2CCCC2)c(Cl)cnn1-c1ccccc1	0.7	-1.0
COc1cc(C(=O)N(CCc2ccccc2)C2CC3CCC(C2)N3C)cc(OC)c1OC (centres undefined)	0.6	-6.0
CCN1CN=C(SCc2ccc([N+](=O)[O-])cc2)NC1	-5.3	/
COc1ccc(C2=NC3Oc4c(C)cccc4C=C3C(=O)N2)c(OC)c1OC (centres undefined)	/	21.0
CCS(=O)(=O)N1CCC(NC(=O)c2cc(OC)cc(OC)c2)CC1	-2.5	4.0

An excerpt from the list above:
SMILES	MgrA DNA FP	Sa helicase inh
CCN1CN=C(SCc2ccc([N+](=O)[O-])cc2)NC1	-5.3	/
COc1ccc(C2=NC3Oc4c(C)cccc4C=C3C(=O)N2)c(OC)c1OC (centres undefined)	/	21.0
CCS(=O)(=O)N1CCC(NC(=O)c2cc(OC)cc(OC)c2)CC1	-2.5	4.0

Next part
SMILES	MgrA DNA FP	Sa helicase inh
COC(=O)c1ccc(COC(=O)/C=C/c2c(C)nn(Cc3ccccc3)c2Cl)o1	/	7.0
Cc1ccc(OC(C)C(=O)Nc2nonc2-c2ccc(Cl)cc2)cc1C (centres undefined)	/	-24.0
CSc1ncc(C(=O)O)cn1	-3.0	0.0
Cc1cc(C)c(C(N)=O)c(N2CCN(c3ccccc3)CC2)n1	/	17.0
CN1CCN(C(=S)SCc2nc(N)nc(Nc3ccccc3)n2)CC1	/	-11.0
Cc1c(N)n[nH]c1-c1cccs1	-8.1	17.0
O=C1NC(=O)C(c2ccccc2[N+](=O)[O-])=C1Nc1ccc(O)c(Cl)c1	0.7	/
CCc1ccc(-c2nn(-c3ccccc3)cc2/C=C\C(=O)O)cc1	0.2	-11.0
Cc1ccc(-c2nc(CS(=O)CC(=O)Nc3c(C)cccc3C)c(C)o2)cc1 (centres undefined)	/	2.0
Nc1nc(C2CC2)[nH]c(=O)n1	0.1	/
CCCCOc1ccccc1C(=O)N(Cc1ccco1)Cc1sccc1C	/	-29.0
COc1cc(OC)c(/C=C2\C(=O)NC(=O)N(c3ccc(C)cc3)C2=O)cc1Br	3.7	/

Three compounds out of the list, arranged by heavy-atom count, smallest number first.
SMILES	MgrA DNA FP	Sa helicase inh
CSc1ncc(C(=O)O)cn1	-3.0	0.0
O=C1NC(=O)C(c2ccccc2[N+](=O)[O-])=C1Nc1ccc(O)c(Cl)c1	0.7	/
COc1cc(OC)c(/C=C2\C(=O)NC(=O)N(c3ccc(C)cc3)C2=O)cc1Br	3.7	/

Continuation:
SMILES	MgrA DNA FP	Sa helicase inh
O=C(O)/C=C/C(=O)N1CCCN(c2ncccc2C(F)(F)F)CC1	-2.0	/
COc1ccc(C2(C(F)(F)F)NC(=O)C3=C(CC(C)(C)CC3=O)O2)cc1 (centres undefined)	1.7	-24.0
O=S(=O)(c1ccc(N2CCOCC2)cc1)N1CCOCC1	0.3	6.0
Cc1cccc(N=C(N)N=C(N)N)c1C	-4.0	/
Cc1cc(C)n(CCc2nc3c4ccccc4n(Cc4ccc(F)cc4)c(=O)n3n2)n1	/	3.0
N#CC(C(=O)c1ccco1)=C1SCCCS1	/	-8.0
CNC(=O)NNc1nccc(-c2cccnc2)n1	/	-8.0
Oc1ccc(Cl)cc1-c1csnn1	/	28.0
O=C(O)CNC(=O)c1ccc(F)cc1	/	-4.0
Cc1cccc(N(C(=O)c2csnn2)C(C(=O)NC2CCCCC2)c2ccco2)c1 (centres undefined)	-0.1	0.0
O=C(CN1CCC(C(=O)c2ccccc2)CC1)NCc1cccs1	-0.9	5.0
O=C1N=C2C=CC=CN2C(=O)C1Cc1ccccc1 (centres undefined)	-0.5	5.0
Cc1cc(=O)oc2c1c(C(F)(F)F)nn2-c1ccccc1	1.4	/
COc1cc(S(=O)(=O)N2CCCc3ccccc32)c(OC)cc1C	3.2	-10.0
CC(C)NC(=O)CN1C(=O)c2cccc3cccc1c23	/	6.0
O=C(CC1SC(=NC2CC3C=CC2C3)NC1=O)Nc1ccc(Cl)cc1 (centres undefined)	/	-20.0
COc1ccc(C(CNC(=O)Cc2cccs2)N(C)C)cc1 (centres undefined)	/	-14.0
CC(=O)Nc1ccc(N(C)S(=O)(=O)c2ccc(C)cc2)cc1	-0.7	-11.0
O=C(NCCO)c1ccc2c(c1)OCCOCCOCCO2	2.8	12.0
C=CCN(C(=O)Cc1nc(-c2ccc(OC)cc2)no1)c1ccccc1	/	7.0
CCc1ccc(/C=C(/C#N)C(=O)OC)s1	0.9	17.0
O=C(OCc1cn2cc(Cl)ccc2n1)C1COc2ccccc2O1 (centres undefined)	/	-17.0
CC(C)(C)CC(C)(C)NS(=O)(=O)c1ccc(F)cc1	0.7	17.0
OC(COc1ccc(C(F)(F)F)cn1)CSc1ccc(C(F)(F)F)cn1 (centres undefined)	-0.2	/
Cc1nc2ccccc2c(=O)n1NC(=O)/C=C/c1ccccc1	4.0	3.0
CCOc1cc(N2CCOCC2)c(OCC)cc1NC(=O)CSc1ncccn1	/	-10.0
NC(=O)CSc1nc2c(c(=O)n1CCc1ccccc1)SCC2	/	-21.0
Cc1ccc(OCC(=O)NC2CC(C)(C)NC(C)(C)C2)c(C)c1	-1.2	9.0
O=C(CN1CCCC1)Nc1ccc(I)cc1	1.2	/
CC1Cc2ccccc2N1C(=O)Nc1ccc(Cl)c(Cl)c1 (centres undefined)	0.1	-1.0
COC(=O)c1oc2ccc(Br)cc2c1NC(C)=O	/	-15.0
COc1ccc2[nH]c(C(=O)N(Cc3ccccn3)Cc3ccccn3)cc2c1	1.4	/
Cc1cnc(C(=O)OCC(=O)N2C(C)CCCC2C)cn1 (centres undefined)	/	-7.0

Compound profiles (already shown). Values in the order: MgrA DNA FP | Sa helicase inh
Profile of Oc1ccc(Cl)cc1-c1csnn1 : / | 28.0
Profile of Cc1ccc(NCc2nnc(SCC(=O)N3CCOCC3)o2)c(C)c1 : -0.8 | 4.0

The list is partial (hit frequency here may not be typical).
